# Screening results (PubChem)
# Vif TR-FRET: HIV-1 Vif–A3G interaction blockers – biochemical, TR-FRET, GST-Vif 1-94, biotin-A3G peptide, dose response retest, primary screen (AID 1117319). inhibition, %, or IC50 in µM where a hit was titrated. actives 0.57% (n = 260,000). TR-FRET GST-Vif / biotin-A3G peptide binding; higher % means a stronger effect; test concentration not given here; strong numbers were not always called active;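 active means above the screen mean plus three standard deviations and confirmed in dose response; inconclusive means results disagree or hit not tested in dose response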;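 further: Vif residues 1-94 fused to GST binding biotinylated APOBEC3G peptide 110-148; 0% = full assay without inhibitor and 100% = GST in place of GST-Vif; retest series ran down from 100 µM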
# MLL AF4-AF9 inh: MLL-AF4/AF9 protein interaction inhibition. AlphaScreen, biotin-AF4 peptide binding to FLAG-AF9. inhibition, % at 10 µM. actives 0.47% (n = 350,000). AID 651704;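 active means every replicate reaching a set inhibition limit, whatever the replicate mean, cut at about 25% in these data; inconclusive means mean inhibition reaches that limit but some replicates miss it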;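 further: 0% = plate neutral control median and 100% = total signal loss; the record names both 10 and 1 µM as test concentration; the first replicate is given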
# Target sequence (P42568 whole entry, looked up): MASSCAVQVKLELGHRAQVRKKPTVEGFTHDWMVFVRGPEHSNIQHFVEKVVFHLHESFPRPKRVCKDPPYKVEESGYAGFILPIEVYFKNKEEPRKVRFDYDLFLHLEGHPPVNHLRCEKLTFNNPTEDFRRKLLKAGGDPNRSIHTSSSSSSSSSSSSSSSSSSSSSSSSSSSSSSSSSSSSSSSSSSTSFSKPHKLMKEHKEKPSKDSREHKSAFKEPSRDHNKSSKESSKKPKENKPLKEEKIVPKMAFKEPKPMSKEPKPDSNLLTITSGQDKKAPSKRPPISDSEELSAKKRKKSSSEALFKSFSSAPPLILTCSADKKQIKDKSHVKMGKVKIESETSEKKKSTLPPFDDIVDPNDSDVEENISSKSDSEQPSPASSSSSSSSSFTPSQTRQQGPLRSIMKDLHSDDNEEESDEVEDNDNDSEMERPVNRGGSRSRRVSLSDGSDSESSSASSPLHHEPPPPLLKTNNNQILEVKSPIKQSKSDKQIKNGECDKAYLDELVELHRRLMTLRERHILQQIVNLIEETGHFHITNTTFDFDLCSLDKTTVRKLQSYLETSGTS
# * = called active by the depositor; ? = inconclusive; & = joins results of further samples.
Molecule	Vif TR-FRET	MLL AF4-AF9 inh
O=C(OCn1nnc2ccccc2c1=O)c1ccc(F)c(S(=O)(=O)N2CCOCC2)c1	-2.6%	1.8
O=C1c2ccccc2C(=O)N1CCCCCCN1C(=O)c2ccccc2C1=O	-9.9%	-2.9
C[C@@H]1CN([C@@H](C)CO)C(=O)CCCn2nncc2CO[C@H]1CN(C)C(=O)Nc1ccc(-c2cccs2)cc1	-0.6%	1.3&1.4
COc1ccc([C@H]2C[C@@H](n3cc(C4CC4)nn3)[C@H](O)CN2CC2CCCCC2)cc1	-1.2%	-2.8
O=C(CSc1nnc(N2CCCC2)n1-c1cccc(Cl)c1)N1CCN(c2ccccn2)CC1	-9.2%	-0.2
CC(=O)Nc1ccc(S(=O)(=O)NCCC(=O)OC(C)C(=O)NC2(C#N)CCCCC2)cc1 (centres undefined)	-11.8%	-0.5
CC1CCCCC12NC(=O)N(CC(=O)Nc1nccs1)C2=O (centres undefined)	-5.9%	2.3
CCOC(=O)c1c(C)[nH]c(C)c1C(=O)COC(=O)/C=C/c1ccc(OC)cc1	0.0%	-4.7
O=C(NN=Cc1ccc(F)cc1)C1CC1	-5.1%	-4.4
O=C(Nc1ccncc1)C1CC(=O)N(Cc2ccccc2)C1 (centres undefined)	-7.2%	-32.0
O=c1oc2c(CN3CCCCC3)c(O)ccc2cc1-c1nc2ccccc2[nH]1	-3.2%	-0.6
COc1ccccc1CNC(=O)COC(=O)c1c[nH]c2ccccc12	-1.2%	-0.3
CCCCC(=O)Nc1ccc(Cl)cc1F	-4.9%	-1.4
O=C1NCC(c2ccccc2)(c2ccccc2)C(=O)N1	-4.8%	-7.9
O=S(=O)(Cc1ccccc1)C(CCCc1ccccc1)S(=O)(=O)Cc1ccccc1	-4.9%	-0.2
CCOC(=O)c1nn(C)c2[nH]c(=O)n(C)c(=O)c12	-3.2%	-6.3
C=C(C)COC(=O)c1ccccc1C(=O)OCC1(C)CO1 (centres undefined)	-0.2%	0.3
O=C(COC(=O)c1cc(=O)c2ccccc2o1)NCc1ccccc1	-4.2%	5.2
Cc1cn([C@H]2C[C@H](O)[C@@H](CCC(=O)NCCN3CCCCC3)O2)c(=O)[nH]c1=O	2.8%	-1.7
COc1ccc(Cl)cc1NC(=O)CN1C(=O)C(=O)N(C2CCCC2)C1=O	-4.6%	-1.6
COc1cc(Cl)c(C)cc1NC(=O)COc1ccc(C)nc1[N+](=O)[O-]	0.9%	-4.2
Cc1cccc(NS(=O)(=O)c2ccc(C)c(C(=O)NCC(c3ccco3)N3CCCCC3)c2)c1 (centres undefined)	-8.6%	-3.7
CCCC(C(=O)NC(C)(C)C)N(Cc1ccccc1)C(=O)c1snc(C(N)=O)c1N (centres undefined)	3.4%	3.1
CCc1ccccc1OCC(=O)Nc1cc(S(=O)(=O)N2CCOCC2)ccc1N1CCCCC1	-5.6%	-8.3
COCCCN1C(=O)C(CC(=O)NC2CCCCC2)CC(C(=O)N2CCOCC2)=C1C (centres undefined)	-5.7%	-0.9

# In the list so far, 6 have a halogen.
Molecule	Vif TR-FRET	MLL AF4-AF9 inh
O=C(OCn1nnc2ccccc2c1=O)c1ccc(F)c(S(=O)(=O)N2CCOCC2)c1	-2.6%	1.8
O=C(CSc1nnc(N2CCCC2)n1-c1cccc(Cl)c1)N1CCN(c2ccccn2)CC1	-9.2%	-0.2
O=C(NN=Cc1ccc(F)cc1)C1CC1	-5.1%	-4.4
CCCCC(=O)Nc1ccc(Cl)cc1F	-4.9%	-1.4
COc1ccc(Cl)cc1NC(=O)CN1C(=O)C(=O)N(C2CCCC2)C1=O	-4.6%	-1.6
COc1cc(Cl)c(C)cc1NC(=O)COc1ccc(C)nc1[N+](=O)[O-]	0.9%	-4.2

# Pulled one by one from above:
Molecule	Vif TR-FRET	MLL AF4-AF9 inh
COc1ccccc1CNC(=O)COC(=O)c1c[nH]c2ccccc12	-1.2%	-0.3
COCCCN1C(=O)C(CC(=O)NC2CCCCC2)CC(C(=O)N2CCOCC2)=C1C (centres undefined)	-5.7%	-0.9

# (cont.)
Molecule	Vif TR-FRET	MLL AF4-AF9 inh
CCOC(=O)CCCCCC(=O)Nc1ccc2c(c1)C(=O)N([C@@H](C)CO)C[C@H](C)[C@H](CN(C)C(=O)Nc1ccc(F)cc1)OCCCC[C@H](C)O2	-6.8%	0.9
Cc1ccccc1C(c1ccccc1Cl)N(C)C (centres undefined)	-7.9%	-0.6
Cc1ccc(S(=O)(=O)N2CCCCC2)cc1NC(=O)c1nn(C)c(=O)c2ccccc12	-2.4%	0.7
COc1ccccc1NS(=O)(=O)c1cccc(NC(=O)C(C)NC(=O)c2ccco2)c1 (centres undefined)	1.5%	-14.3
O=C(c1cccnc1)N(Cc1ccccc1)C(=O)c1cccnc1	-10.2%	-3.2
O=C(CN1CCN(C(=O)CCC(=O)N2CCC(c3ccccc3)=N2)CC1)Nc1ccc(F)cc1	-1.0%	2.3
Cc1cccc(NC(=O)CNC(=O)c2cc(S(=O)(=O)N(C)C)ccc2N2CCCC2)c1C	-0.1%	-0.8
CC1CC(=O)c2ccccc2C1C (centres undefined)	2.4%	0.4
CC(C)C[C@@H](CN1CCCC1CN1C(=S)NC[C@@H]1Cc1ccc(O)cc1)N1C[C@H](Cc2ccc(O)cc2)N(CCc2ccccc2)C1=S (some centres undefined)	-0.6%	3.5
COc1ccc(C=O)cc1COc1ccc2c(c1)OCO2	2.0%	-1.8
O=C(CCCn1c(=S)[nH]c2cc3c(cc2c1=O)OCO3)NCCc1ccc(Cl)cc1	-17.7%	3.9
NC(=S)NN=C1CCC(C2CCCCC2)CC1 (centres undefined)	-10.2%	10.2
Cc1ccccc1NC(=O)Cc1nc(COC(=O)c2ncc(Cl)c(Cl)c2Cl)cs1	-2.1%	-1.3
O=C(C=Cc1ccco1)c1ccc([N+](=O)[O-])cc1	15.1%	3.4
O=C(NNC(=S)Nc1ccc(C(=O)O)c(O)c1)c1ccncc1	0.4%	-2.6
CC(C)C[C@@H](CNCC(=O)[C@H](CC(C)C)NC(=O)c1[nH]cnc1C(=O)N[C@@H](C)CN)NC(=O)c1nc[nH]c1C(=O)N[C@@H](C)C(=O)O	-7.0%	1.8
COc1ccc(NC(=O)CCN2C(=O)C3CC=CCC3C2=O)cc1S(=O)(=O)N1CCCCC1 (centres undefined)	-0.1%	-28.6
CCOC(=O)c1c(C)oc2c1c(C=NCc1ccccn1)c(O)c1ccccc12	1.86µM*	12.6
CCOC(=O)C=Cc1ccc(C(=O)OCC)[nH]1	2.1%	-0.3
O=S(=O)(NCCc1ccccc1)c1ccc(F)cc1Br	-0.6%	-5.1
O=C(COC(=O)/C=C/c1ccc(F)cc1)NC1CCS(=O)(=O)C1 (centres undefined)	-3.1%	0.4
CCC(=O)c1ccc(OCC(=O)N(CC)CC2COc3ccccc3O2)cc1 (centres undefined)	-3.7%	7.9
N#Cc1ccc(C(=O)OCc2cccc(S(=O)(=O)N3CCOCC3)c2)cc1	-7.2%	-0.1
CC1NC(=O)c2cc3ccccc3cc2-n2c1nc1ccccc1c2=O (centres undefined)	-5.8%	-2.5
CCc1cccc(NC(=O)COC(=O)C2COc3ccccc3O2)c1 (centres undefined)	-0.7%	0.8
COCCN(Cc1nc2ccccc2c(=O)[nH]1)C(=O)c1cccc(S(=O)(=O)N2CCCC2)c1	-7.6%	2.0
COc1ccc2[nH]c3c(c2c1)CCN1C(=O)C(CC(=O)NCCc2ccccn2)C[C@H](C(=O)N2CCCCC2)[C@@]31CCc1ccccc1 (some centres undefined)	-1.5%	9.4
O=C1[C@H]2[C@@H](c3ccccc3)N[C@]3(CCCN(Cc4ccccc4)C3=O)[C@H]2C(=O)N1Cc1ccccc1	8.9%	1.2
N#CC1C(=N)Cc2ccccc2-c2ccccc21 (centres undefined)	-6.9%	4.0
CC(=O)Nc1ccc(NC(=O)C(C)OC(=O)C2CCN(S(=O)(=O)c3ccccc3C(F)(F)F)CC2)cc1 (centres undefined)	4.7%	-13.1
O=C(O)c1ccccc1SC1CC(=O)N(c2cccc3ccccc23)C1=O (centres undefined)	?	1.4
Cc1ccc(Nc2ncnc(Cl)c2N)cc1	-9.0%	1.8
O=C(OCc1cn([C@H]2CN(C(=O)c3cccs3)[C@@H](c3ccccc3)C[C@@H]2O)nn1)c1ccccc1	-5.4%	-2.9
O=C1OC(c2ccccc2)Sc2ccccc21 (centres undefined)	-0.5%	-1.9
CCC[C@H]1CN(c2ccc(Br)cc2)C(=O)[C@@H]1CC(=O)NC	-3.5%	0.3
Cc1cc(O)cc2c1C1CCC3(C)C(O)CCC3C1C=C2 (centres undefined)	-2.0%	-0.3
Cc1cc(=O)oc2cc(OCC(=O)NC3(C#N)CCCCC3)c(Cl)cc12	-13.5%	0.1
CCOC(=O)C1=CN(Cc2ccco2)S(=O)(=O)N(CC)C1c1cccc(OC)c1 (centres undefined)	3.5%	4.7
O=C1c2ccccc2C(=O)C1C(=O)C1CC1	-10.4%	1.9
COc1ccccc1-c1noc2c1C(=O)N(C(=O)OC(C)(C)C)CC2	4.5%	-1.0
C[C@H](O)[C@@H]1C(=O)N2CCc3ccc(N4CCN(C)CC4)cc3[C@@H]2C[C@@H]1N(C)C(=O)Nc1cc(Cl)cc(Cl)c1	5.5%	8.3
COc1ccccc1N1CCN(C(=O)CC(NC(=O)c2ccccc2Cl)c2ccccc2)CC1 (centres undefined)	1.8%	-0.5
CCC[C@@H](CN1CCC[C@H]1CN1C(N)=NC[C@H]1CC(C)C)N1C[C@@H](Cc2ccccc2)N(CCCC2CCCC2)C1=N	3.2%	16.3
C[C@@H]1CN([C@H](C)CO)C(=O)c2cc(Br)cnc2O[C@H]1CN(C)C(=O)Nc1ccccc1F	-6.8%	0.0&-5.6
COc1ccc2c(c1)C(CC(=O)NN)CCC2 (centres undefined)	-1.4%	-0.3
CCOc1ccccc1CNn1cnnc1SCC(=O)NC(C)(C)C	-2.7%	-3.2
CCN(CC(=O)Nc1ccc(OC)cc1)C(=O)c1ccc(OCc2c(C)noc2C)cc1	0.8%	0.0
CCc1noc(C)c1C(=O)N1CCCC(Nc2cccc(F)c2)C1 (centres undefined)	0.0%	-4.0
CC1CCCC(NC(=O)CN2C(=O)NC(c3ccccc3)(c3ccccc3)C2=O)C1C (centres undefined)	-1.2%	-2.1
CC(=NNC(=S)N1CCCCCC1)c1cccc2cccnc12	3.9%	2.6

# Next section
# Values in the order – Vif TR-FRET	MLL AF4-AF9 inh
> CC(C)(C)c1ccc(S(=O)(=O)N2CCN(C(=O)c3ccc4c(c3)C(=O)N(Cc3ccncc3)C4=O)CC2)cc1
  3.1%	2.8
> COc1cc(C(=O)c2ccccc2C(=O)O)c(OC)c2c1CCCC2
  -5.3%	0.8
> O=C(CNc1ccccc1N1CCCC1=O)Nc1cc(Cl)ccc1-n1cncn1
  18.4%	0.8
> N#CCSc1ccccc1NC(=O)COC(=O)C1CCN(C(=O)c2ccc(Cl)cc2)CC1
  3.2%	1.3
> CCCCN(C(=O)CSCC(=O)Nc1ccc(OC)cc1)c1c(N)n(CC(C)C)c(=O)[nH]c1=O
  -9.5%	-11.3
> CCN(C(=O)CN1CCC(C)CC1)c1c(N)n(Cc2ccccc2)c(=O)[nH]c1=O
  -2.5%	-14.9
> O=S(=O)(c1cccc2ccccc12)N1CCC2CC1c1cc(Cl)ccc12 (centres undefined)
  -10.8%	-4.8
> Cc1ccc(OCC(=O)NNC(=O)CSC(=S)N2CCCC2)cc1
  6.5%	-0.8
> COC(=O)C[C@H]1C[C@H]2c3cc(NC(=O)Cc4ccncc4)ccc3O[C@H]2[C@@H](CO)O1
  4.0%	-9.3&-0.8
> COC(=O)c1cc(OC)c(OC)cc1NC(=O)CCN1C(=O)C2CCCCC2C1=O (centres undefined)
  6.6%	-0.5
> Nc1cccc2c1C(=O)c1ccc(Cl)cc1C2=O
  5.9%	9.6
> C=CCOC(=O)c1ccccc1C(=O)OCC1CO1 (centres undefined)
  -6.2%	-3.3
> NC1=NC2OC(CO)C(O)C2O1 (centres undefined)
  -0.3%	-2.6
> COc1ccc(NC(=O)CN(C)C(=O)c2ccc3ccccc3c2)cc1
  7.7%	-3.2
> COc1ccc(CC(=O)NCc2ccc(Cl)cc2)cc1S(=O)(=O)N1CCOCC1
  2.5%	-0.4
> C[C@H](CO)N1C[C@H](C)[C@@H](CN(C)C(=O)c2ccccc2)OCc2cnnn2CCCC1=O
  -0.3%	-3.3&-0.3&-2.2
> Cc1ccc([C@@H]2C[C@H]3[C@@H](CN2S(=O)(=O)c2ccc(Cl)cc2)C(=O)C[C@@H](c2ccccc2)N3S(=O)(=O)c2ccc(C)cc2)cc1
  4.2%	1.3
> CC(=O)Nc1cc2c3ccccc3n(C)c2cc1[N+](=O)[O-]
  -0.5%	2.6
> COc1ccc(C(CNC(=O)CNC(=O)c2cccc(C)c2)N2CCCCC2)cc1 (centres undefined)
  0.7%	8.6
> O=C(Cc1ccccc1)CC(CC(=O)c1ccccc1)c1ccccc1 (centres undefined)
  -4.0%	4.1
> CSc1ncnc2c1ncn2CCCNCCc1ccccn1
  1.1%	-2.0
> O=C(COC(=O)c1n[nH]c(=O)c2ccccc12)Nc1ccccc1
  4.5%	-15.0
> CN(C)CCN1C(=O)c2cccc3cc([N+](=O)[O-])cc(c23)C1=O
  11.8%	-0.3
> Cc1ccnc(NC(=O)COc2ccccc2[N+](=O)[O-])c1
  22.8%	-0.7
> Cc1cnc2c(N)cc(C)c(C)c2c1
  9.8%	5.7

# Some of the compounds tested (hit frequency here may not be typical).
